Screening data deposited in PubChem BioAssay by National Center for Advancing Translational Sciences (NCATS).
SmPrx2 inh: Schistosoma Mansoni Peroxiredoxins (Prx2); S. mansoni Prx2 activity coupled to TGR/GSH (TGR is thioredoxin glutathione reductase), NADPH fluorescence loss, qHTS; some inactives read as strong as hits; Potency, µM; 65,000 compounds, 0.07% hits; AID 448, 2006; active means full or partial inhibition curve with a strong effect at the top dose; inconclusive means weaker partial or single-point curve; inactive means no accepted curve; note: series up to 57 µM; many of its hits are not listed in these tables
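Prx2 activity was followed as the loss of NADPH fluorescence (ex 365/em 450 nm), read every 30 sec for 8 min after H2O2 start. The enzyme mix (50 nM Prx2, 25 nM TGR, GSH, NADPH; pH 7.4 phosphate buffer) was incubated with compound for 15 min at room temperature first.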
Anthrax LT inh: qHTS Assay for Anthrax Lethal Toxin Internalization | Cells, anthrax lethal toxin internalization, FRET ratio (460/530) | 70,000 compounds, 0.67% hits | Potency, µM (top dose mostly 40 µM), inactives show top-dose activity change, negative = inhibition, usual class: inhibitors; active = well fitted falling ratio curve with the 530 nm signal flat; inconclusive = other ratio curves, or a change in one channel alone; inactive = flat curves in the ratio and both channels; the % refers to the ratio; note: % is set by controls: 0 for no effect and ±100 for the full control effect; nearly all actives have a fitted effect of over 50% in size; tested in ME-180 cells; beta-lactamase reporter
* marks the source's active call; other numbers are inactive results; u = inconclusive; x = no result given; & = joins results of further samples; ! = not confirmed by another sample; [ ] = another dose, or the depositor's remark. Potency is the fitted concentration of half-maximal effect. Not all compounds are listed; count on the stated rates, not on these rows.

SMILES	SmPrx2 inh	Anthrax LT inh
Cc1ccc(S(=O)(=O)N2CCCC2C(=O)Nc2nc3ccccc3s2)cc1 (centres undefined)	x	u
COC(=O)c1ccc(OCC(=O)c2ccc(O)cc2O)cc1	>57	-9%
O=C(Nc1cccc(Br)c1)c1ccn[nH]1	>57	7%
COc1cccc(C(c2nnnn2CS(=O)(=O)c2ccc(C)cc2)N2CCN(C)CC2)c1OC (centres undefined)	>57	-1%
CCCCOC(=O)c1ccccc1C(=O)OCc1ccccc1	x	u
Clc1cccc(-c2nnc(-c3ccccc3)o2)c1	x	u
O=C(O)c1nc2ccccc2nc1C(=O)O	>57	14%
CCN(Cc1ccccc1)C(=O)Cn1cnc2c1c(=O)n(C)c(=O)n2C	>57	-8%
Cc1cc(=O)n2nc(N3CCC(C(=O)NCCc4ccccc4)CC3)sc2n1	>57	-5%
COc1cc2c(cc1OC)CN(C(=O)c1ccccc1C(=O)O)CC2	>57	u
CC1(C)C(c2ccccc2)=NC(c2ccc(F)cc2)N1O (centres undefined)	>57	-10%
Cc1ccc(NC(=O)C2CCN(S(=O)(=O)c3cnc[nH]3)CC2)nc1	>57	7%
O=S(=O)(c1ccc2c(c1)OCCO2)N(Cc1ccc(F)cc1)Cc1nnc(-c2cccs2)o1	>57	-11%
O=C(Nc1ccc(Oc2ccc(NC(=O)c3ccco3)c(NC(=O)c3ccco3)c2)cc1)c1ccco1	>57	x
O=C(CCn1c(=O)[nH]c2ccccc2c1=O)NCCCN1CCN(c2cccc(Cl)c2)CC1	>57	8%
Cc1ccc(C(=O)NCCCCNC(=O)c2ccc(C)o2)o1	x	-6%
O=C(c1ccco1)N1CCC2(CCCN(Cc3ccccc3)C2)CC1	>57	17%
C=CCn1c(=O)c2ccccc2n2c(SCC(=O)NCCc3ccccc3)nnc12	>57	-9%
Cc1occc1-c1nnc(SCC(=O)N2CCN(c3ccccc3)CC2)n1C	>57	13%
CC1Cn2c(nnc2-c2ccc(F)cc2)S1 (centres undefined)	>57	-4%

In the list so far, 3 have an NH in an aromatic ring.
SMILES	SmPrx2 inh	Anthrax LT inh
O=C(Nc1cccc(Br)c1)c1ccn[nH]1	>57	7%
Cc1ccc(NC(=O)C2CCN(S(=O)(=O)c3cnc[nH]3)CC2)nc1	>57	7%
O=C(CCn1c(=O)[nH]c2ccccc2c1=O)NCCCN1CCN(c2cccc(Cl)c2)CC1	>57	8%

Later entries
SMILES	SmPrx2 inh	Anthrax LT inh
COc1cccc(NC(=O)N2CCN(c3cccc(C)c3C)CC2)c1	>57	x
Cc1nc(NCCO)c2nc(-c3ccccc3)n(CC3CCN(C)CC3)c2n1	x	-3%
Cc1ccc(C(O)c2nccn2C)o1 (centres undefined)	>57	1%
O=C(O)CSCC(=O)Nc1cc(C(F)(F)F)ccc1Cl	>57	-14%
CC(C)C[C@@H](CC(=O)N[C@@H](CCC(=O)O)CC(=O)O)NC(=O)[C@@H]1CNCC[C@H]1NC(=O)C[C@@H](NC(=O)C[C@H](CO)NC(=O)[C@@H]1CNCC[C@H]1N)C(C)C	>57	3%
COc1ccc(OC)c2[nH]c(=O)c(CCNC(=O)C(C)C)cc12	>57	u
Cc1ccc2nsnc2c1S(=O)(=O)N1CCN(C(=O)C2CCCO2)CC1 (centres undefined)	>57	16%
COc1cccc(NC(=O)c2ocnc2C)c1	>57	x
O=C(CCc1nc2ccccc2[nH]1)Nc1ccc(F)cc1	>57	-6%
COc1ccc(C)cc1NC(=O)CSc1nnc(-c2ccccn2)n1Cc1ccco1	>57	u
CCOc1nc(NCCc2ccc(OC)c(OC)c2)nc(NC(C)(C)CO)n1	>57	9%
O=C(CSc1nnc(C2COc3ccccc3O2)o1)Nc1nccs1 (centres undefined)	>57	14%
CCc1nc2ccccc2n1Cc1ccc(OC)c(OC)c1	>57	u
COC(=O)NC(c1cccc(C)c1)C(C(C)=O)C(=O)OC (centres undefined)	x	-7%[8 µM]
Cc1cc(NC(=O)CSc2nc(C(C)C)nc3sc4c(c23)CCCC4)no1	>57	-25%
COCCNc1nc(-c2ccccc2OC)nc2ccccc12	>57	7%
CCOC(=O)NC(=O)CSc1ccccn1	>57	-17%
COC(=O)[C@]1(C)C[C@H]1[C@H](NP(=O)(c1ccccc1)c1ccccc1)c1ccccc1	x	2%
O=C(Cc1cccs1)N1CCC(c2nc3c(nnn3Cc3ccccc3Cl)c(=O)[nH]2)CC1	>57	10%
CN(C)c1nc(N)nc(-c2cccnc2)n1	>57	3%
O=C(CCNc1ccc(Cl)c(C(F)(F)F)c1)c1ccco1	>57	-22%
CC(C)(C)C1(C)OC(C(N)=O)C(C(N)=O)O1 (centres undefined)	>57	-3%
O=C(Cn1ncc2c(=O)oc3ccccc3c21)N1CCC(N2CCCCC2)CC1	>57	-13%
CCc1ccc2nc(NC3=NCN(CCN4CCOCC4)CN3)nc(C)c2c1	>57	u
CC(=O)N1CCc2cc(S(=O)(=O)Nc3cccc(C(F)(F)F)c3)ccc21	>57	8%
Cc1ccc(S(=O)(=O)N2CCCC2CO)cc1 (centres undefined)	>57	-11%
Cn1nnnc1SCC(=O)Nc1ccc(N2CCOCC2)cc1	>57	7%
CCCCCCn1c(N2CCN(c3ccccc3)CC2)nc2c1c(=O)n(C)c(=O)n2C	>57	-3%
COc1ccc(-c2[nH]ncc2Oc2ccccc2OC)c(O)c1	>57	9%
CCCCCOc1ccc(C(=O)NC(C(=O)O)C(C)C)cc1 (centres undefined)	>57	-3%
COc1ccccc1CN1CC2(CCN(C(=O)c3cnccn3)CC2)C1	>57	1%
COc1ccc(NCc2nnc(SCC(=O)N3CCCc4ccccc43)n2C)cc1	>57	4%
CN(C)S(=O)(=O)N1CCc2ccccc2C1	>57	-16%
COC(=O)c1ccc(C(NC(=O)OCc2ccccc2)/C(=C/[C@@H](C)C(=O)N(C)C)c2cccnc2)cc1 (some centres undefined)	x	12%
O=C(CCSCCC(=O)NCCN1CCOCC1)NCCN1CCOCC1	>57	-6%
CN(C)S(=O)(=O)c1cccc(C(=O)Nc2cccnc2)c1	>57	0%
Cc1noc(C)c1S(=O)(=O)N(CC(=O)O)c1ccc2c(c1)OCO2	>57	-16%
O=C(CSCCO)Nc1cccc(C(F)(F)F)c1	>57	u
Oc1ccc(Cl)cc1Cc1cc(Cl)cc(Cc2cc(Cl)ccc2O)c1O	>57	4µM*
COc1cccc(-c2nnc(N(C)C(=O)C3CCOC3)s2)c1 (centres undefined)	>57	6%
COc1ccc(C2C(C#N)=C(N)Oc3n[nH]c(C)c32)cc1CN1CCN(c2ccc(F)cc2)CC1 (centres undefined)	x	u
COc1ccc(COCC(O)CN2CCOCC2)cc1OC (centres undefined)	>57	9%
Cc1ccc(-c2nnn(CC(=O)Nc3ccc(S(=O)(=O)N4CCC(C)CC4)cc3)n2)cc1	>57	-25%
CCCOC(=O)Nc1ccc(C(N)=O)cc1	>57	4%
CC(C)NC(=O)c1ccc2c(=O)n(C3CCCC3)c(=S)[nH]c2c1	>57	9%
CCc1nc2cc(Cl)c(Cl)cc2[nH]1	>57	-3%
CCOc1ccc(NC(=O)CN2CCN(CC(=O)Nc3ccc4c(c3)OCO4)CC2)cc1	>57	-4%
Cc1ccc2c(c1)N(CC(=O)N1CCN(c3nc4ccccc4s3)CC1)C(=O)C(C)O2 (centres undefined)	>57	-6%
CC(C)(C)c1nnc2sc(SCC(=O)N3CCCc4ccccc43)nn2c1=O	>57	u
O=C(C1CCCN(S(=O)(=O)c2ccccc2)C1)N1CCCc2ccccc21 (centres undefined)	>57	-17%
O=C1c2[nH]nc(-c3ccccc3O)c2C(c2ccccc2)N1Cc1ccco1 (centres undefined)	>57	u
Cc1ccc2cc(CN(CC3CCCO3)C(=O)NC3CCCCC3)c(=O)[nH]c2c1C (centres undefined)	>57	8%
Clc1ccc(Cl)c2sc(N3CCCC3)nc12	>57	-28%
N#CCSc1nnc(-c2ccccc2O)n1CCc1ccccc1	>57	-10%
CC1(C)CC(=O)C2=C(C1)OC(c1cccs1)C(C#N)=C2N (centres undefined)	>57	14%
O=C(c1csnn1)N1CCC2(CC1)CN(c1cccc(-c3ccccc3)c1)C2	>57	-15%
S=C(S)NCCN1CCNCC1	>57	9%[8 µM]
Cc1nc(NCc2ccccc2)c2nc(-c3ccccc3)n(CCN3CCOCC3)c2n1	x	3%
CCCC(c1nnnn1C1CCCCC1)N1CCN(c2ncccn2)CC1 (centres undefined)	>57	8%
O=C(CSc1ccc(Cl)cc1)NC1CCCC1	x	-6%

(cont.)
SMILES	SmPrx2 inh	Anthrax LT inh
O=C(O)c1ccccc1C(=O)O	x	8%
Cc1cc(C)c2c(=O)n(-c3ccccc3)[nH]c2n1	>57	4%
CC1CCc2cc(F)ccc2N1C(=O)CN1C(=O)c2ccccc2C1=O (centres undefined)	>57	u
COC(=O)c1ccc2c(c1)NC(=O)C(N1CCCCC1)S2 (centres undefined)	>57	-3%
COc1cc(C)ccc1NC(=O)c1ccc(S(=O)(=O)N2CCOCC2)cc1	>57	4%
COc1ccc2[nH]c(=S)[nH]c2c1	>57	3%
CCOc1cccc(-c2cc(=O)[nH][nH]2)c1	>57	3%
CCOC(=O)C1CCN(C(=O)c2ccc(OC)cc2OC)CC1	>57	11%
C=CCNC(=O)c1cc(=O)c2ccccc2o1	>57	-6%
COC(=O)c1[nH]c(C)c(/C(O)=C2\C(=O)C(=O)N(CCN3CCOCC3)C2c2cccs2)c1C (centres undefined)	>57	-13%
CN1[C@@H]2CC[C@H]1CC(OC(=O)c1cc(Cl)cc(Cl)c1)C2 (some centres undefined)	>57&>57	16µM*!
CC1(C)OC(C(=O)NC2CCCCC2)C(C(=O)NC2CCCCC2)O1 (centres undefined)	>57	-6%
CSc1nc2sc3c(c2c(=O)n1C)CCC(C)C3 (centres undefined)	>57	5%
O=C(CSc1c2c(nc3ccc(Cl)cc13)CCCC2)N1CCN(C(=O)c2ccco2)CC1	>57	u
CC(=O)C(C)Oc1ccc2c3c(c(=O)oc2c1C)CCCC3 (centres undefined)	>57	-19%
O=c1c(-c2ccc(F)cc2)nc2cncnc2n1Cc1ccccc1	>57	u
CCCCn1c(N)c(Sc2ccc(C)cc2)c(=O)[nH]c1=O	>57	-8%
COC(C(C)/C=C/CC(=O)OCCCc1ccccc1)C1CCCCC1 (centres undefined)	x	-9%[8 µM]
Cc1nc(-c2ccccc2)c(Cc2ccccc2O)c(=O)[nH]1	>57	-4%[8 µM]
CC(C)NC(=O)CSCc1ccccc1Cl	x	-1%
Clc1ccccc1OCCCCN1CCCC1	>57	0%
N#CC1=C(O)CCCn2c1nc1ccccc1c2=O	>57	4%
CCOc1ccc(C2CC(c3cccc(OC)c3)n3nc(N)nc3N2)cc1 (centres undefined)	>57	1%
CCCCc1cc2ccccc2c(OCCN(C)C)n1	>57	u
CCN(CCCNC(=O)c1[nH]c(C)c(C(C)=O)c1C)c1ccccc1	>57	-2%
NC(Cc1ccc2nonc2c1)C(=O)O (centres undefined)	>57	u
Cc1cc(NC(=O)CCCC(=O)NCc2cccs2)no1	>57	u
CC(C)CN(C(=O)COC(=O)C12CC3CC(CC(O)(C3)C1)C2)C1CCS(=O)(=O)C1 (centres undefined)	>57	-4%
O=C(NCCO)C(c1ccccc1)c1ccccc1	>57	0%
Cc1cccc(N(CC(=O)Nc2c(C)n(C)n(-c3ccccc3)c2=O)S(C)(=O)=O)c1	x	-11%
CSC1=NCCN1C(=O)c1ccc(S(=O)(=O)N(C)C)cc1	>57	-5%
CC1(C)N=C(N)N=C(N)N1CCCCc1ccccc1	>57	4%[8 µM]
CS(=O)(=O)NCCSCc1ccccc1	>57	11%
CCOC(=O)c1nnn(CC(=O)Nc2cccc(OC)c2)c1C(=O)OCC	>57	-11%
Cc1ccc2c(c1)c1c3n2CCN=C3CCC1	>57	-1%
O=C(Nc1cnn(Cc2ccccc2)c1)c1nc2ncccn2n1	>57	5%
CN(Cc1nnc(SCC(=O)NCCc2ccccc2)n1C)S(=O)(=O)c1ccccc1	>57	-9%
Cc1sc(NC(=O)CN2CCN(c3ccccn3)CC2)c(C#N)c1C	>57	u
CCOC(c1cc(OC)cc([N+](=O)[O-])c1OC)C(C)C(OC)[C@@H](C)/C=C/CC(=O)OC (some centres undefined)	x	-10%[8 µM]

A section taken from the entries so far, for reference:
SMILES	SmPrx2 inh	Anthrax LT inh
Clc1ccccc1OCCCCN1CCCC1	>57	0%
N#CC1=C(O)CCCn2c1nc1ccccc1c2=O	>57	4%

Random excerpt: 7 records from the list, in no set order.
SMILES	SmPrx2 inh	Anthrax LT inh
Cc1ccc(C(=O)NCCCCNC(=O)c2ccc(C)o2)o1	x	-6%
CC(C)NC(=O)c1ccc2c(=O)n(C3CCCC3)c(=S)[nH]c2c1	>57	9%
CCOc1ccc(C2CC(c3cccc(OC)c3)n3nc(N)nc3N2)cc1 (centres undefined)	>57	1%
CCOc1cccc(-c2cc(=O)[nH][nH]2)c1	>57	3%
CCc1nc2ccccc2n1Cc1ccc(OC)c(OC)c1	>57	u
Cn1nnnc1SCC(=O)Nc1ccc(N2CCOCC2)cc1	>57	7%
COc1cccc(NC(=O)c2ocnc2C)c1	>57	x
